Screens (PubChem BioAssay)
eIF4H inh: human eIF4H binding inhibitors, primary screen, translation initiation inhibitor project, biochemical, uHTS, fluorescence polarization; Eukaryotic translation initiation factor 4H (Homo sapiens), Q15056; eIF4H fluorescence polarization binding assay; inhibition, % at 35 µM; 290,000 tested, 0.94% active; AID 2012, 2009;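 active = 50% or more with normal probe brightness, or confirmed in later tests; inconclusive = above 50% with abnormal brightness, or retests that disagree; inactive = below 50% or failed in later tests; about a fifth of its hits are not listed in these tables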;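 also: calls also rest on retests at 20 µM and on dose response follow-up; 0% = protein and probe with vehicle and 100% = probe without protein; strong numbers were not always called active; many hits fall short of the cut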
CSC inhib: cancer stem cell viability inhibitors, primary screen, luminescence; cancer stem cell-like cells viability; AID 2717, 2010; 300,000 tested, 1.1% active; inhibition, % at 7.5 µM;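 active = mean at 75% or more and at least half the replicates too; inconclusive = mean and replicates disagree; tested in HMLE shEcad cells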;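 also: 0% = median of negative and 100% = median of positive control wells; the first replicate is given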
MT1-MMP act inh: blockers of MT1-MMP proenzyme processing, primary screen, HT1080 RFP-PRO-GFP cells, GFP/RFP fluorescence; 360,000 tested, 0.061% active; GFP/RFP ratio fluorescence, overnight; percent of plate control window, DMSO zero; AID 651647, 2012; GFP/RFP ratio change, % at 20 µM;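 active = GFP/RFP ratio change of at least 30% with cell ATP level not reduced by more than half and red fluorescence within 50% of control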; also: strong numbers were not always called active
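Test system: HT1080 cells expressing an RFP-PRO-GFP fluorescent reporter construct / Compound dosing: single-point 20 µM compound, 1% DMSO / Schedule: cells overnight before dosing, compound overnight, 37 °C, 5% CO2 / Evaluation: GFP/RFP fluorescence ratio / Control set: DMSO and RFP-L50D-GFP cell wells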
Rce1 inh: yeast Rce1p protease inhibitors, primary screen, biochemical, fluorescence, cell-free homogeneous | 290,000 tested, 0.27% active | yeast membranes, quenched prenylated peptide cleavage fluorescence | CAAX prenyl protease 2 (Saccharomyces cerevisiae (strain ATCC 204508 / S288c)), Q03530 | calls only;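 active = fall in fluorescence gain of 50% or more versus controls, with final raw signal at or below 3038400; inconclusive = same 50% fall but final raw signal above 3038400; inactive = fall in fluorescence gain under 50%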;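 also: plate controls were neutral control wells for no effect and wells lacking membranes for full effect; tested at 10 µM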
Target sequence (Q03530 whole entry, looked up): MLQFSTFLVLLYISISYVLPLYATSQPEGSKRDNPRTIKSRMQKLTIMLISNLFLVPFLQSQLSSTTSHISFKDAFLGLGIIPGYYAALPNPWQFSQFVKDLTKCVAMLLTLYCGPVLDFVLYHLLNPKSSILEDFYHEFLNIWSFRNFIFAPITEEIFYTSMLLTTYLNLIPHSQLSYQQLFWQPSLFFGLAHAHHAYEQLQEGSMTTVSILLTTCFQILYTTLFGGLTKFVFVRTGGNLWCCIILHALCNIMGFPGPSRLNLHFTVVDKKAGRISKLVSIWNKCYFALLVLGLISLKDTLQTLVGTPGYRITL
PABP FP inh: PABP poly(A) RNA binding inhibitors, primary screen, biochemical, fluorescence polarization, uHTS; 290,000 tested, 1% active; AID 2014, 2009; inhibition, % at 35 µM; Polyadenylate-binding protein 1 (Homo sapiens), P11940;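 active = 50% or more with normal probe brightness, or confirmed in later tests; inconclusive = above 50% with abnormal brightness, or retests that disagree; inactive = below 50% or failed in later tests; about a fifth of its hits are not listed in these tables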;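 also: calls also rest on retests at 20 µM and on dose response follow-up; controls were probe without protein and protein plus probe with vehicle; some compounds called inactive have numbers as strong as hits; many hits fall short of the cut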
HIV Env fusion: inhibitors of HIV-1 Env-driven cell-cell fusion, primary screen, HeLa-JRFL effector, CEM21 target cells, luciferase; inhibition, % at 12.3 µM; 360,000 tested, 1.1% active;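 active = mean replicate inhibition score of at least 50 and every replicate individually at or above 50; inconclusive = only one of the two criteria met; inactive = mean below 50 and not all replicates reaching 50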;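 also: 0% = plate neutral controls and 100% = maraviroc near 300 nM; one replicate is shown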
UUG fidelity: modulators of yeast start codon fidelity, primary screen, whole organism, S. cerevisiae, single point, plate reader | S. cerevisiae UUG-firefly luciferase reporter, luminescence/redox ratio | activity score, % at 18.7 µM | 350,000 tested, 0.13% active;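 active = replicate mean at a twofold rise or more, about +100% in these data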;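 also: firefly luciferase made from a UUG start codon reports start codon fidelity; reporter light over untreated wells divided by growth signal over untreated wells; some hits fall short of that in this replicate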
eIF4H inh retest: recorded beside eIF4H inh, whose call it bears; inhibition, %; compound at 20 µM; confirmation average;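 mean of two retest wells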
PABP FP inh retest: also measured in PABP FP inh; calls as there; inhibition, %; compound at 20 µM; confirmation repeats;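 mean of two retest wells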
MT1-MMP act inh RFP: second read-out of MT1-MMP act inh, no call of its own (marks repeat the call); RFP signal change, %; measured here: RFP expression control read;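 0 = vehicle wells; hits needed this value within 50% of zero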
The depositor's hits bear a star; i = inactive; ? = inconclusive; · = not tested or not shown; & = joins results of further samples.

SMILES	eIF4H inh	CSC inhib	MT1-MMP act inh	MT1-MMP act inh RFP	Rce1 inh	PABP FP inh	HIV Env fusion	UUG fidelity	others
CC(=O)c1cccc(NC(=O)N2C[C@H]3C[C@@H](C2)c2cccc(=O)n2C3)c1	-3	-1	0	3	·	6	·	-20
COc1ccc(C2NCCc3[nH]cnc32)cc1 (centres undefined)	0	1	-1	-2	i	2	-3	-6
CC12CCC3C(CCC4C/C(=N/O)CCC43C)C1CCC2O (centres undefined)	3	-7	0	-1	i	9	-10	·
CCC(=NCCCn1ccnc1)c1c(O)n(Cc2ccccc2)c(=O)[nH]c1=O	-7	-7	-6	-5	i	2	16	-2
C#CCOc1ccc2c(c1)c(C(C)=O)c(C)n2Cc1ccccc1	-3	11	13	-9	i	4	16	7
O=C(COc1ccccc1F)N1CCN(CCN2C(=O)c3cccc4cccc(c34)C2=O)CC1	-7	-6	2	-2	i	-3	-2	·
COc1ccc2c(c1)c(C(=O)C(C)N1CCCCC1)c(C)n2C (centres undefined)	-2	-1	-2	4	i	20	-8	0
CN(Cc1c[nH]c2ccccc12)C1CCCCC1	-8	-14	2	3	i	-8	15	·
COc1ccc(C(=O)N2CCCC2=O)cc1	1	-6	1	2	i	-4	-37	1&-14
Cc1cc(C=C2C(=O)N(C)C(=S)N(C)C2=O)c(C)n1-c1cccnc1	42	2	-3	19	i	-8	-5	-7
COc1cc(N2CCOCC2)ccc1/C=C1\C(=O)NC(=O)N(C2CCCCC2)C1=O	?	16	1	11	i	-2	-16	·
C/C=C1\NC(=O)[C@@H](NC(=O)[C@H](CCc2ccc(O)cc2)NC(=O)[C@H](C)NC(=O)[C@H](O)CO)[C@@H](C)OC(=O)[C@H](C(C)C)NC(=O)[C@H](Cc2ccc(O)cc2)N(C)C(=O)[C@H](Cc2ccccc2)N2C(=O)C(CC[C@H]2O)NC1=O (some centres undefined)	·	·	2	2	·	·	-84	-5
Cc1c(C=O)c2ccccc2n1Cc1ccccc1	-6	3	-1	-7	i	8	10	-15
CCC(=Nc1ccc2c(c1)CCC2)c1c(O)n(C2CCCCC2)c(=O)[nH]c1=O	-6	19	0	0	i	7	-36	-5
Cn1c(O)c(/C=N/NC(=O)c2ccncc2)c(=O)[nH]c1=S	34	-6	10	29	i	38	-4	-17
CCOc1ccccc1C1SCC(=O)Nc2c1c(=O)[nH]n2C(CC)CC (centres undefined)	-2	-7	3	4	i	-5	·	-20
CC12CC[C@H]3[C@@H](CCC4(O)C[C@H](O)CCC34/C=N/NC(=O)c3ccccc3O)C1(O)CCC2C1=CC(=O)OC1 (some centres undefined)	1	40	3	4	i	4	i	·
C/C(=N\Nc1ccccc1)c1c(O)n(C)c(=O)n(C)c1=O	0	91*	-4	-2	i	4	16	-18
CCCCNC(=O)NC(C(N)=O)P(=O)(OCC)OCC (centres undefined)	14	-15	1	6	i	3	3	-15
CC(=NCCN1CCOCC1)c1c(O)n(Cc2ccccc2)c(=O)[nH]c1=O	4	-11	-7	-2	i	-2	13	-7
CCn1cc(CN2CCCC(C(=O)c3sccc3C)C2)cn1 (centres undefined)	-1	15	2	2	i	-4	2	·
CSC(=Nc1ccccc1)c1c(O)n(C)c(=O)n(C)c1=O	25	-15	-26	-7	i	31	·	-4
Cc1ncoc1C(=O)NCC1=C(c2ccc(S(C)(=O)=O)cc2)C[C@@H]2CC[C@H]1N2CCOc1ccccc1	·	·	-3	5	·	·	-6	-1
Cc1cc(C=C2C(=O)NC(=O)NC2=O)c(C)n1-c1ccc2c(c1)OCO2	65	19	-2	5	i	15	4	-9	eIF4H inh retest=-3;PABP FP inh retest=-3
Nc1c(C(=O)NCc2ccco2)c2nc3ccccc3nc2n1CCN1CCOCC1	22	-5	-15	-1	i	50	-14	6
O=C1CN(O)C(c2ccccc2Cl)=c2cc(Br)ccc2=N1	-8	-7	-2	-1	i	0	13	-8
CCOP(=O)(OCC)C(NC(=O)CC(C)C)C(Cl)(Cl)Cl (centres undefined)	-10	3	2	8	i	-10	4	·
O=C(NCc1ccc(C(=O)N2CCC3(CC2)OCCO3)cc1)c1cccc(Br)c1	5	-1	-1	-2	i	-7	-10	-14
O=C1CN(O)C(c2ccccc2)=c2cc(Br)ccc2=N1	2	1	2	6	i	-3	8	-16
CCN1CCN(C(=O)Cc2ccc(C)cc2)CC1	38	1	3	0	i	-9	-31	-4
CC(=NCCCn1ccnc1)c1c(O)n(-c2ccccc2)c(=O)[nH]c1=O	-1	-13	3	-3	i	4	-1	·
C#C[C@]1(O)CCC2C3C(=O)C=C4C=CCC[C@]4(C)C3CC[C@@]21C (some centres undefined)	·	·	4	-1	·	·	3	-7
CCC1CN1P(=O)(Oc1ccc(Cl)cc1)N1CC1CC (centres undefined)	·	·	3	5	·	·	-3	3
N#Cc1cc2c(nc1SCC(=O)Nc1cc(Cl)cc(Cl)c1)C1CCN2CC1	14	-4	-15	-17	·	-3	·	-14
C=Cc1ccc(Cn2c(C(=O)O)c(C=O)c3ccccc32)cc1	-7	-9	-6	1	i	1	4	·
O=C1NC(=O)N(c2cccc(Br)c2)C(=O)/C1=C/c1ccsc1	?	0	-36	-1	i	-2	-3	·
CCN(CC)CCN1Cc2ccccc2C1=N	9	-5	2	4	i	-1	-13	-15
CCC(C)N1Cc2ccccc2C1=N (centres undefined)	-7	-3	-10	-7	·	-1	-13	-10
CN1CCN(c2c(N)c(=O)oc3ccccc23)CC1	-5	-24	-6	-1	i	5	·	-10
COC(=O)C1=C(c2cccc(OCc3ccccc3)c2)C[C@@H]2CC[C@H]1N2C(=O)NCc1ccc(OC)c(OC)c1	·	10	1	-10	·	·	-32	-12
COC(=O)C1=C(c2ccc(F)cc2OCc2ccccc2)C[C@@H]2CC[C@H]1N2C(=O)NCc1ccc(C(F)(F)F)cc1	·	·	-9	-16	·	·	32	2
CCCCN1C(=O)/C(=C/c2ccc(N3CCCCCC3)cc2)C(=O)NC1=S	55	13	·	·	i	-7	·	·	eIF4H inh retest=41;PABP FP inh retest=37
CCCCn1c(O)c(C(C)=NCCCN(CC)CC)c(=O)[nH]c1=O	2	-13	-10	0	i	12	12	-19
COC(=O)CC1(CC(=O)OC)C(=O)N(c2ccccc2)C(=O)N(c2ccccc2)C1=O	-8	-9	-1	5	i	-4	-15	-21
O=C(O)c1cccc2c1NC(c1cccc([N+](=O)[O-])c1)C1CC(Sc3ccccc3[N+](=O)[O-])C(Cl)C21 (centres undefined)	82*	·	7	0	i	76	11	·	eIF4H inh retest=66*;PABP FP inh retest=27
CCCCCn1c(=O)c(C(=O)Nc2ccccc2S(N)(=O)=O)c(O)c2ccccc21	3	6	-15	-31	i	13	48	·
FC(F)(F)c1ccc(CNCCc2ccc3c(c2)OCO3)cc1	8	41	2	3	i	-2	12	9
CCOc1cc(C=C2C(=O)NC(=O)NC2=O)cc([N+](=O)[O-])c1O	-4	-12	·	·	i	3	15	·
Cc1ccc(-c2cc(C(F)F)n3ncc(C(=O)N4CCC5(CC4)OCCO5)c3n2)cc1	11	-9	4	3	·	-4	·	1
NC(Cc1ccccc1)c1nc2ccccc2[nH]1 (centres undefined)	0	-7	3	4	i	-3	-19	-6
CCC12C=CCN3CCC4(c5cc(Br)c(OC)cc5N(C)C4C(O)(C(=O)OC)C1OC(C)=O)C32 (centres undefined)	1	-9	-8	-7	i	-12	-36	-21
O=C(CCc1nnc2ccc(NCc3ccc(F)cc3)nn12)N1CCC2(CC1)OCCO2	-6	5	1	3	i	-1	-3	-3
O=C(Nc1cccc2ccccc12)c1nn(C23CC4CC(CC(C4)C2)C3)cc1Br	-15	?	-9	-11	i	-8	·	-6
O=c1[nH]c2ccccc2n1C1CCN(C(c2ccnc3ccccc23)c2nnnn2Cc2ccccc2)CC1 (centres undefined)	·	·	1	1	·	·	-56	-10
O=C(c1ccco1)C12CN3CN(CN(C3)C1)C2	85	-8	-1	1	i	-4	-12	11	eIF4H inh retest=-6;PABP FP inh retest=-4
O=C1c2ccccc2-n2nnc(-c3ccccc3)c2C2c3cc(Br)ccc3CCN12 (centres undefined)	·	·	3	3	·	·	9	-8
Cn1c(O)c(C=Nc2ccccc2)c(=O)n(C)c1=O	2	-10	-2	-3	i	-7	-16	-19
C[C@]12CCC(=O)C(O)=C1CC[C@@H]1[C@@H]2CC[C@]2(C)C(=O)CC[C@@H]12	0	-13	3	0	i	4	-5	1
CO[C@@H]1C=CC23c4cc5c(cc4CO[C@]2(O)CN(C)[C@H]3C1)OCO5 (some centres undefined)	·	-2	2	2	·	·	-60	-11
O=C(CN1C(=O)CN=C(c2ccccc2)c2ccccc21)NCc1ccco1	6	-3	-12	-2	i	3	-6	-1
Further entries
SMILES	eIF4H inh	CSC inhib	MT1-MMP act inh	MT1-MMP act inh RFP	Rce1 inh	PABP FP inh	HIV Env fusion	UUG fidelity	others
CN1CCN(C(=O)COc2ccc(S(=O)(=O)NCc3ccccc3)cc2Cl)CC1	3	0	2	1	i	3	·	-10
CN1C(=O)C(C2c3ccccc3C(=O)N2Cc2ccccc2)C(=O)N(C)C1=O (centres undefined)	-3	-9	-6	0	i	27	·	-7
Cc1ccc2c(c1)CC1(CN2C)C(=O)NC(=O)N(c2ccc(C)c(C)c2)C1=O (centres undefined)	-4	3	-1	2	i	21	·	-7
CN=C(SCc1cc2c(cc1Cl)OCO2)c1c(O)n(C)c(=O)n(C)c1=O	-4	24	1	5	i	5	31	-6
CC(=O)C1CCC2C3CCC4CC(O)CCC4(C)C3CCC12C#N (centres undefined)	·	·	-3	3	·	·	-10	-29
Nc1cc(N2CCNCC2)ccc1[N+](=O)[O-]	2	-12	-2	5	i	-7	·	·
COc1cccc(-n2nc(C(=O)N3CCC4(CC3)OCCO4)c3ccccc3c2=O)c1	-12	0	2	0	·	-10	·	-11
O=P(C(=Nc1ccc(Cl)cc1)N1CCOCC1)(N1CCOCC1)N1CCOCC1	-6	-6	1	3	·	-16	-42	8
O=c1[nH]c(CN2CC=C(c3ccccc3)CC2)nc2cc(C(F)(F)F)ccc12	27	-13	-9	0	i	14	·	-19
c1ccc(C2c3ccccc3-n3nncc3CN2CC2CCCCC2)cc1 (centres undefined)	·	·	-2	-8	·	·	27	-20
NC(Cc1ccccc1)Cc1ccccc1	-12	-9	1	4	i	-17	13	·
Cc1c(C)c2ccc(OCC(=O)N3C[C@H]4C[C@@H](C3)c3cccc(=O)n3C4)c(C)c2oc1=O	-2	-4	7	3	·	1	·	-10
Cc1cccc(N2C(=O)NC(=O)/C(=C\C=C\c3ccco3)C2=O)c1	?	?	-36	31	i	?	i	·

Some of the compounds tested. The share of hits here may be higher or lower than overall.
